RecA intein inh: inhibitors of M. tuberculosis RecA intein splicing. AID 2221. cell-free RecA intein splicing, fluorescence. 0.75% of 290,000 active. inhibition, %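 (about 9 µM by stock and volumes)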. P9WHJ3; in the data active = inhibition above about 30%; inconclusive = no clear call, values can overlap the other calls;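 note: 0% = vehicle wells and 100% = reference inhibitor control wells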
Target sequence (P9WHJ3 whole entry, looked up): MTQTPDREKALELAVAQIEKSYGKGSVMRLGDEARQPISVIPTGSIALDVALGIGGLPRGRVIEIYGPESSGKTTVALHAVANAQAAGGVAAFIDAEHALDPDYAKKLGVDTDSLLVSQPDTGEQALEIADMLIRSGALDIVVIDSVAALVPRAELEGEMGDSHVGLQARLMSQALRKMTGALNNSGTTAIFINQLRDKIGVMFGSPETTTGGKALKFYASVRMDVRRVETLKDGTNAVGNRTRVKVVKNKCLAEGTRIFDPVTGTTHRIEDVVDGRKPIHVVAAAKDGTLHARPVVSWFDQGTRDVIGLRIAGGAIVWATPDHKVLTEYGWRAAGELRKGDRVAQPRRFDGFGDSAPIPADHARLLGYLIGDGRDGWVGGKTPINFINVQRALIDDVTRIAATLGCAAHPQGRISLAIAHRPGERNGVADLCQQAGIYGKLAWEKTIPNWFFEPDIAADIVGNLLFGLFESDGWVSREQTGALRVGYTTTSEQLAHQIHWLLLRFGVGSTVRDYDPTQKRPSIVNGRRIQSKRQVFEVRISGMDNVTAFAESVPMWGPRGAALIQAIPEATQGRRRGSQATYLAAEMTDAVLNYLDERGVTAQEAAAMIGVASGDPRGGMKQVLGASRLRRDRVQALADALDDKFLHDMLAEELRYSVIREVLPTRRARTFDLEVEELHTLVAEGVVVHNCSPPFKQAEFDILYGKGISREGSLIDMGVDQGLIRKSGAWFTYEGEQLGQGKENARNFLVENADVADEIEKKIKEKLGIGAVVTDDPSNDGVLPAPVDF
YopH inh: inhibitors of Yersinia enterocolitica YopH tyrosine phosphatase. fluorescence Ex485/Em525. inhibition, %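 (about 10 µM by stock and volumes)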. 0.16% of 140,000 active. AID 898;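 active = inhibition of 50% or more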;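 note: controls were vehicle for no effect and minimum signal wells for full effect; inactives centre near -20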
Arbovirus inh: blocks arbovirus infection. inhibition, % at 10 µM. arbovirus infection cell-based antiviral screen. 0.37% of 200,000 active;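 active = inhibition from about 30%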;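 note: bluetongue infection of BSR cells; cell survival read as ATP light after 72 h; 0% = infected wells without compound and 100% = uninfected wells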
Mtb betalactam: beta-lactam sensitization of Mtb H37Rv; M. tuberculosis H37Rv growth with meropenem, percent inhibition; hits of this screen are not shown here; inhibition, % at 25 µM; 0.27% of 330,000 active; AID 434955;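 active = about 74% or more and at least 40 points above the plate without the antibiotic, then above 30% in a dose series; inconclusive = first-round hits that could not be retested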;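 note: growth measured after seven days incubation then overnight dye step; 0% = bacteria only wells and 100% = bacteria with antibiotic; twin plates without the antibiotic show which effects depend on it; some results filed as inactive read as strong as hits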
Mtb H37Rv: M. tuberculosis H37Rv growth inhibitors, H37Rv strain (AID 1626); 0.95% of 220,000 active; M. tuberculosis H37Rv growth inhibition; higher % means a stronger effect; one-dose inhibition, % at 10 µM; IC50 in µM for titrated hits;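 active = confirmed in a dose series; inconclusive = inhibition above 80% but not taken into the dose series; inactive = below 80% or under 30% at every dose of the series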;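 note: bacteria incubated seven days before Alamar blue readout; 0% = bacteria only wells and 100% = bacteria with antibiotic wells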
Arbovirus inh repeat: recorded beside Arbovirus inh, whose call it bears; inhibition, %; measured here: 10K subset replicate screen; many hits read low in the repeat;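 first of two repeat runs on a subset; 0% = infected and 100% = uninfected wells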
Starred values were filed as active, the others as inactive; ? = inconclusive; / = not tested or not shown; & = joins results of further samples. An excerpt. The share of hits here may be higher or lower than overall.

SMILES | RecA intein inh | YopH inh | Arbovirus inh | Mtb betalactam | Mtb H37Rv | others
S=C(NCCc1ccccn1)Nc1ccc(Cl)cc1 | -2.1 | -12 | 1 | 7 | 3%
CCc1nc(NC(=O)Cc2csc(C)n2)sc1C(=O)OC | -1.3 | / | / | 6 | /
Cc1nc(SCC(=O)CC(=O)OC(C)C)c(C#N)c(C)c1C | -1.7 | -1 | 6 | 2 | -6%
CN(C)c1ccc(N=Nc2ccccc2C(=O)OCC(=O)N(C)C2CCCCC2)cc1 | 5.2 | -27 | 13 | 89 | 27%
CCn1cc(/C=N/O)c(C)n1 | -0.4 | -10 | 0 | 2 | -6%
O=C(Nc1ccncc1)Nc1cccc(F)c1 | 0.5 | / | / | -2 | /
Cc1cccc(N2CC(C(=O)Nc3nnc(SCC(=O)Nc4nccs4)s3)CC2=O)c1 (configuration not stated) | 3.5 | -11 | -4 | / | 11%
CCCCC(=O)Nc1ccc(NC(=O)c2cnccn2)cn1 | -1.1 | / | 0 | -6 | 19%
Cn1c(CN2CCN(C(=O)c3ccccc3)CC2)nc2cc([N+](=O)[O-])ccc21 | 3.7 | -20 | 6 | 2 | -1%
COc1ccc(-c2nc(CCl)cs2)cc1 | 2.5 | / | 17 | 0 | -6%
CN(C)C=NC(=O)c1cc(C(=O)c2ccc(Cl)cc2)c[nH]1 | 1.1 | / | 6 | -8 | -6%
N#Cc1c(/N=C\c2ccc(O)c([N+](=O)[O-])c2)sc2c1CCCC2 | -5.0 | / | 21 | -9 | 9%
CNc1nc(-c2ccccc2)[n+](-c2ccc(C)cc2)s1 | 6.3 | -31 | 21 | -1 | -2%
COc1ccccc1-n1c(SCC(=O)N2CCCCC2)nc2cccnc21 | / | -12 | 0 | -2 | 3%
CCCCC(=O)Nc1ccc(NC(=S)NC(=O)CCCCl)cc1OC | -1.6 | -17 | -4 | 85 | 19%
CCOC(=O)Cc1csc(NS(=O)(=O)c2ccc(C(F)(F)F)cc2)n1 | -0.2 | / | / | -10 | -13%
COc1ccc(C(=O)c2c(O)cc(-c3ccc(OC)cc3)oc2=O)cc1 | 1.1 | -20 | 11 | 4 | -4%
Cn1/c(=N/NC(=O)c2ccccc2F)sc2ccccc21 | -2.6 | / | -5 | -8 | -2%
O=C(N/N=C\c1ccccc1F)c1ccc(-c2ccccc2)cc1 | -0.9 | / | / | 1 | /
COc1ccc(NC(=O)CC(C(=O)O)C(C)c2ccccc2)cc1 (configuration not stated) | 1.1 | / | / | 0 | /
COc1cc2c(cc1OC)C(c1cccc([N+](=O)[O-])c1)=NCC2 | 0.4 | / | / | -1 | /
COCCNC(=O)CSc1cc(=O)n(C)c2cc(Cl)ccc12 | -0.8 | / | -6 | -3 | -21%
O=C(COc1ccc2ccccc2c1)NN1C(=O)c2ccccc2C1=O | -1.1 | -29 | 1 | 5 | -1%
Cc1ccc(/C=C(\C#N)C(=O)Nc2cccc3ncccc23)o1 | -7.2 | -11 | -7 | -3 | -3%

Six compounds picked at random from the list so far, as already listed:
SMILES | RecA intein inh | YopH inh | Arbovirus inh | Mtb betalactam | Mtb H37Rv | others
CCOC(=O)Cc1csc(NS(=O)(=O)c2ccc(C(F)(F)F)cc2)n1 | -0.2 | / | / | -10 | -13%
COCCNC(=O)CSc1cc(=O)n(C)c2cc(Cl)ccc12 | -0.8 | / | -6 | -3 | -21%
Cc1ccc(/C=C(\C#N)C(=O)Nc2cccc3ncccc23)o1 | -7.2 | -11 | -7 | -3 | -3%
CNc1nc(-c2ccccc2)[n+](-c2ccc(C)cc2)s1 | 6.3 | -31 | 21 | -1 | -2%
COc1ccc(NC(=O)CC(C(=O)O)C(C)c2ccccc2)cc1 (configuration not stated) | 1.1 | / | / | 0 | /
COc1ccccc1-n1c(SCC(=O)N2CCCCC2)nc2cccnc21 | / | -12 | 0 | -2 | 3%

More compounds follow:
SMILES | RecA intein inh | YopH inh | Arbovirus inh | Mtb betalactam | Mtb H37Rv | others
COc1cc(/C=N/NC(=O)CC#N)ccc1Oc1nc(Cl)ncc1F | -2.0 | / | / | 2 | /
O=C1c2ccccc2NC(c2cn[nH]c2-c2ccc(Cl)cc2)N1O (configuration not stated) | -4.2 | -29 | -33 | -4 | 2%
C=CCOc1ccc(/C=C(\C#N)C(=O)Nc2ccccn2)cc1 | 3.6 | / | / | 10 | /
Cc1c(N=C2NC(=O)C(CC(=O)Nc3ccc(Cl)cc3)S2)c(=O)n(-c2ccccc2)n1C (configuration not stated) | -1.2 | -41 | 3 | -8 | -10%
C=CCn1c(=NC(=O)C2COc3ccccc3O2)sc2cccc(OC)c21 (configuration not stated) | 1.8 | / | / | -5 | 5%
COc1cccc(C2CC(C(F)(F)F)n3ncc(C(=O)NCC4CCCO4)c3N2)c1 (configuration not stated) | 1.8 | -52 | -7 | 9 | 1%
Cc1ccsc1/C=N/NC(=O)c1ccc([N+](=O)[O-])cc1 | 8.5 | / | 1 | 23 | 8%
CCOC(=O)c1sc(NC(=O)Nc2ccccc2Cl)cc1C | 4.9 | -29 | -5 | 68 | 21%
CN1CCN(NC(=O)Nc2ccc(Br)cc2)CC1 | 0.6 | / | / | 6 | /
Cc1ccc(C)c(OCCC(=O)OCC(=O)N(C)c2c(N)n(Cc3ccccc3)c(=O)[nH]c2=O)c1 | 1.1 | / | / | -5 | /
O=C(CC(Nc1ccccc1)C(=O)O)c1ccccc1 (configuration not stated) | 1.3 | / | -2 | 15 | 6%
COc1ccccc1/C=C1\SC(N2CCC(C)CC2)=NC1=O | -1.2 | / | / | 10 | /
Cn1c(N)c(C(=O)c2ccccc2)c(=O)n(C)c1=O | -0.1 | -22 | 7 | -13 | -1%
NNC(=O)c1oc2nc(-c3ccccc3)cc(-c3ccco3)c2c1N | -9.4 | / | / | 23 | 3%
Cc1cccc(-n2nnnc2-c2cnccc2C(F)(F)F)c1C | 0.2 | / | / | 2 | -11%
CCN1CCN(C(=S)Nc2cccc([N+](=O)[O-])c2)CC1 | 0.3 | -8 | -1 | -4 | -2%
CP(=O)(Nc1cc(Cl)ccc1Cl)c1nc2c(s1)CCCC2 (configuration not stated) | -0.8 | / | / | 0 | /
COc1ccccc1C(=O)NCC(=O)N1CCN(S(=O)(=O)c2ccc3c(c2)OCCO3)CC1 | 0.3 | / | / | -3 | /
O=C(N/N=C/c1ccc[nH]1)c1ccc2c(c1)OCO2 | 0.0 | / | 4 | 2 | -4%
COc1ccc(CNC(=O)C2C3C=CC4(CN(Cc5cccnc5)C(=O)C24)O3)cc1 (configuration not stated) | -5.3 | -42 | 8 | 3 | -7%
CCN(CC)c1ccc(/C=N/Nc2nc(C)cc(C)n2)c(O)c1 | 10 | -19 | -27 | 0 | 9%
Cc1c(N=Cc2nc3ccccc3n2C)c(=O)n(-c2ccccc2)n1C | -5.6 | -11 | 2 | -2 | -9%
CN(C)c1ccc(/C=C2\CCCCC2=O)cc1 | 1.7 | -4 | -11 | 13 | 3%
COc1ccc(OC)c(CC(NC(C)=O)C(=O)NC2CCN(c3c(Cc4ccccc4)c(C)nc4ncnn34)CC2)c1 (configuration not stated) | 1.2 | -37 | 1 | -2 | -1%
COc1ccccc1NC(=O)c1ccc(NC(=O)CSc2nncn2C)cc1 | -1.7 | -53 | 9 | 8 | 6%
Cc1ccc(-c2nnc(SCC(=O)N3CCN(c4ccccc4)CC3)o2)cc1 | -2.0 | -29 | 1 | -3 | -4%
CCN(CC)CCN(Cc1cc2cc3c(cc2[nH]c1=O)OCO3)C(=S)NCCOC | 0.2 | / | / | 3 | /
Cc1cccc(N2C(=O)Cc3ccccc3C2=O)c1 | 4.3 | / | / | 2 | /
CCOC(=O)CN1C(=O)C(=O)c2cccc(C)c21 | -1.0 | -22 | -14 | 0 | -4% | Arbovirus inh repeat=-2
CCCNC(=O)[C@H](Cc1c[nH]c2ccccc12)NC(=O)c1ccccc1Cl | -0.6 | -52 | 1 | 10 | 0%
CC(C)CCNC(=O)c1ccc(Cn2c(=S)[nH]c3ccccc3c2=O)cc1 | -2.5 | / | / | 2 | /
O=C(N/N=C/c1cc([N+](=O)[O-])ccc1O)c1cccc(N2CCCC2=O)c1 | -1.1 | / | / | 16 | /
COc1ccc(C)cc1S(=O)(=O)N1CCN(C(=O)c2ncoc2-c2cccc(F)c2)CC1 | 2.3 | / | / | -8 | /
CCCCNC(=O)C1C2C=CC3(CN(Cc4ccccc4Cl)C(=O)C13)O2 (configuration not stated) | -0.2 | -8 | -2 | 3 | -5%
O=C(C1=C(O)C(=O)N(Cc2cccnc2)C1c1ccccn1)c1cccs1 (configuration not stated) | -0.4 | / | 16 | -9 | -1%
O=S(=O)(Cc1cc(Oc2ccccc2)nc(-c2ccccc2)n1)c1ccccc1 | 5.1 | -39 | 6 | -1 | 12%
O=C(Nc1ccc2oc(-c3ccncc3)nc2c1)c1ccccc1 | -1.0 | / | -4 | -9 | 7%
C=CCNC(=O)C12CCC(C)(C(=O)C1Br)C2(C)C (configuration not stated) | -1.9 | -22 | 1 | -3 | -4%
Cc1cc(C)n(CC(=O)N/N=C/c2ccco2)n1 | -2.3 | 0 | -1 | -4 | -1%
CCc1cc2c(=O)[nH]cnc2s1 | -2.1 | -28 | 1 | 1 | 4%
Nc1nc2n(n1)C(=O)CC(c1ccccc1[N+](=O)[O-])N2 (configuration not stated) | / | / | 14 | -3 | -9%
COc1cccc(-c2csc(NC(=O)C3CC3)n2)c1 | 1.6 | -38 | 26 | -1 | 10% | Arbovirus inh repeat=18
CNC(=O)N(O)C1N(c2ccccc2)C(=S)SC1(C)C (configuration not stated) | -4.8 | -24 | 4 | 0 | -2%
Oc1ccc(Nc2nc(-c3cccnc3)cs2)cc1 | 7.1 | / | / | 0 | /
O=C(CCS(=O)(=O)c1ccc(Br)cc1)NCCc1ccccc1 | -4.0 | / | / | 2 | /
CCOC(=O)c1c(/N=C/N(C)C)sc(/C=N/Nc2ccccc2)c1-c1ccccc1 | -6.7 | -37 | -30 | -7 | 1%
O=c1cc(-c2ccccc2Cl)c2c([nH]1)CCC2 | -0.9 | -29 | -1 | -6 | 10% | Arbovirus inh repeat=2
CC1(C)S[C@@H]2[C@H](NC(=O)Cc3ccccc3)C(=O)N2[C@H]1C(=O)O | -1.1&0.7 | -31 | 2 | ? | 0%
CCCCOCCCNCC(=O)Nc1ccc(S(N)(=O)=O)cc1 | 0.5 | / | 8 | 2 | 0%
Cc1ccc(C)c(C(=O)OCC(=O)N(C)c2ccccc2)c1 | -4.2 | / | / | -9 | /
Cc1ccc(NC(=O)CCc2c(C)nc3ncnn3c2C)cc1 | 0.7 | -7 | 10 | -7 | -5%
Cc1ccc(NC(=S)NCCN2CCOCC2)cc1 | 0.4 | -5 | 0 | 8 | -3%
C[N+]1(C2CCC3CCC2C3O)CCCC1 (configuration not stated) | -0.8 | -17 | 5 | 9 | 8%
O=C(CSc1nc2ccccc2n1CCc1ccccc1)N1CCOCC1 | -10 | -27 | -10 | 4 | -14%
Cn1nc(-c2ccccc2)c(C(=O)NC(C(=O)O)c2ccccc2)c1Cl (configuration not stated) | -1.5 | / | 11 | 2 | 0%
Cc1ccc2oc(=O)cc(CN3CCC(C)CC3)c2c1 | 1.8 | -13 | -1 | 1 | 3%
O=C1COc2ccc(C(=O)COC(=O)Cc3ccccc3F)cc2N1 | / | / | -6 | -3 | -3%
CCCCc1nc2cc(C(=O)N3CCC(OC)CC3)ccc2o1 | 0.6 | / | / | -7 | /
CNc1c(NS(=O)(=O)c2ccc3c(c2)CCCC3)c(=O)oc2ccccc12 | 1.2 | / | / | 2 | /
O=C(C1CCN(Cc2cc(Cl)ccc2O)CC1)N1CCN(Cc2ccccc2)CC1 | -0.8 | -47 | -9 | 6 | /
COc1ccc(C(=O)NCC(c2cccs2)N2CCc3ccccc32)c(OC)c1 (configuration not stated) | -0.5 | / | / | 5 | /
COc1ccc(-c2nn(-c3ccccc3)cc2CO)cc1OC | 0.0 | -39 | 3 | 56 | -4%
Fc1ccc(-c2[nH]ncc2-c2nnnn2-c2ccccc2)c(F)c1 | -1.3 | -28 | 3 | 0 | -3%

Sorted by molecular weight (descending): part of the list above.
SMILES | RecA intein inh | YopH inh | Arbovirus inh | Mtb betalactam | Mtb H37Rv | others
O=C(C1CCN(Cc2cc(Cl)ccc2O)CC1)N1CCN(Cc2ccccc2)CC1 | -0.8 | -47 | -9 | 6 | /
COc1ccc(C(=O)NCC(c2cccs2)N2CCc3ccccc32)c(OC)c1 (configuration not stated) | -0.5 | / | / | 5 | /
CNc1c(NS(=O)(=O)c2ccc3c(c2)CCCC3)c(=O)oc2ccccc12 | 1.2 | / | / | 2 | /

Screening results: PubChem BioAssay, several laboratories
